HPGD block = qHTS Assay for Inhibitors of HPGD (15-Hydroxyprostaglandin Dehydrogenase). purified HPGD, NADH fluorescence kinetic, PGE2 substrate. Potency, µM, for the others: at the highest dose activity change, negative = inhibition, most hits filed as inhibitors. hit rate 4.3% among 150,000. AID 894, 2007; active = well fitted inhibition curve with a large enough effect (not every such curve was filed as active); inconclusive = small, poorly fitted or top-dose-only effect, or another doubt; inactive = no such curve, though single readings can be large or run the other way;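 also: top concentration of the series not given in the record; plate controls included wells without enzyme; inactives centre near -10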
Target sequence (P15428 whole entry, looked up): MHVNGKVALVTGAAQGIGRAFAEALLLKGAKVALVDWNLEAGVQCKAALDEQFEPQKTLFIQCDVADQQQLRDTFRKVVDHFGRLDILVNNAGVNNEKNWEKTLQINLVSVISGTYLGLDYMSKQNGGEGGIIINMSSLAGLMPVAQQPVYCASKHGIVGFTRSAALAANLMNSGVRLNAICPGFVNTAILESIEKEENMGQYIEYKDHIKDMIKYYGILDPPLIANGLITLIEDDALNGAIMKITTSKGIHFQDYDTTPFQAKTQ
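NADH formation kinetics: reaction with 30 uM PGE2 and 1 mM NAD+ (final), 20 nM enzyme, Tris-HCl pH 8 with Tween 20, after 15 min compound preincubation at room temperature. Fluorescence change, last versus first of five reads.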
Starred values were filed as active, the others as inactive; ? = inconclusive; & = joins results of further samples. % is scaled to controls: 0 for no effect and ±100 for the full control effect; potency is read from the fitted curve at half-maximal effect. This is a subset, so the mix of outcomes need not match the whole.

SMILES	HPGD block
CCOC(=O)c1c(C)[nH]c(C(=O)COC(=O)/C=C/c2ccc(OC(F)F)cc2)c1C	-4%
COC(=O)c1ccc(S(=O)(=O)NNC(=O)c2ccc(S(=O)(=O)N3CCCCC3)cc2)cc1	-9%
COc1ccc(C(=O)N2CCC3(CCCN(C(=O)Nc4cccc(F)c4)C3)CC2)cc1	-7%
CC(COc1ccccc1)N(CCCl)Cc1ccccc1 (stereo not given)	0%&-13%&-14%&-23%
Cc1nc(N2CCN(C(=O)CCC(=O)O)CC2)c2c(C)c(C)sc2n1	35µM*
O=C(Nc1ccnc(-c2cccnc2)n1)c1cccc(Cl)c1Cl	-9%
CCc1nnc(NC(=O)CSc2nnc(COc3ccccc3)n2-c2ccc(C)cc2)s1	-2%
O=C(NN=C1CCCCCC1)c1cc(-c2ccccc2)nc2ccccc12	-3%
CCn1nccc1C(=O)Nc1cc(Cl)cc(Cl)c1	?
O=C(/C=C\Nc1ccc(Br)cc1)c1cccnc1	-13%
COc1ccc(N(CC(=O)N2CCN(C)CC2)S(C)(=O)=O)cc1OC	-3%
N[C@@]1(C(=O)O)CCC[C@@H]1C(=O)O	2%
O=C1c2ccccc2C(O)(Cc2ccccc2)N1C1CCCCC1 (stereo not given)	-13%
C/C(Nc1ccc2oc(=O)ccc2c1)=C1/C(=O)CC2[C@@H]1C2(C)C (stereo not given in full)	-16%
Cc1ccc(S(=O)(=O)N2CCN(C(=O)CSc3ncc(C(F)(F)F)cc3Cl)CC2)cc1	-12%
CC(=O)c1nn(-c2ccccc2)cc1C(=O)c1cccc(Br)c1	-4%
O=C(Cc1ccccc1Cl)Nc1cccc(S(=O)(=O)N2CCOCC2)c1	-10%
CC(C)CN1CCCC2(CCN(C(=O)c3csnn3)CC2)C1	0%
COc1ccc(-n2cnnc2SC(C)c2nc3sc(C)c(C)c3c(=O)[nH]2)cc1 (stereo not given)	-14%
O=C(Nc1cccnc1)c1c(F)cccc1F	-10%
COc1ccc(C(NC(N)=O)c2ccccc2)cc1 (stereo not given)	-9%
O=C(O)CC(NCc1ccco1)C(=O)OCC1CCCO1 (stereo not given)	3%
COC(=O)c1ccc(SCc2cnc(Cl)s2)cc1	-24%
Cc1ccc(CNC(=O)CO/N=C/c2ccc3c(c2)OCO3)cc1	-21%
CCOC(=O)c1c(NC(=O)CSc2nnc(-c3cccnc3)n2Cc2ccco2)sc(C)c1C	-21%
COc1cccc(/C=N/NC(=O)CSc2nnc(C)n2-c2ccccc2)c1O	-7%
S=C(Nc1ccc(Cl)cc1)N1CCCCC1	-2%
COc1ccc(NC(=O)C(CCCCNC(=O)OC(C)(C)C)NC(=O)OCc2ccccc2)cc1 (stereo not given)	-7%
Cc1ccc(-c2nnc(SCc3ccccc3F)o2)cc1	-27%
CNc1ncc(C(=O)c2ccccc2)s1	-27%
Cc1cc(C(=O)Nc2ccccc2)oc1C	?
CCCN(CCO)Cc1ccc(Cl)c(Cl)c1	2%
N/C(=N\OS(=O)(=O)c1ccccc1)c1ccncc1	-6%
O=C(NCC1CCCO1)C1CCC(=O)N1CCc1ccccc1 (stereo not given)	-11%
CCOc1ccccc1NC(=O)COn1nnc2ccc(Cl)cc21	?
Cc1ccc(NC(=O)N(CCCN2CCOCC2)Cc2cccs2)cc1C	-16%
O=C(COc1ccc(Cl)cc1)N1CCN(C(=O)c2cccc(F)c2)CC1	3%
CS(=O)(=O)N(Cc1ccc(C(=O)NN=C2CCCC2)cc1)c1ccccc1	-9%
COc1ccc2[nH]c3c(N4CC(C)OC(C)C4)ncnc3c2c1 (stereo not given)	?
Cc1ccc(S(=O)(=O)n2c(CN3CCCC(C)C3)nc3ccccc32)cc1 (stereo not given)	?
N#CC1=C(N)SC2(CCCCC2)SC1c1ccccc1 (stereo not given)	?
COC(=O)c1cc(S(=O)(=O)N2CCOCC2)c(Cl)cc1N1CCOCC1	-9%
O=C(CSc1nc2ccc(Cl)cc2[nH]1)c1ccc2c(c1)OCO2	-16%
Cc1nnc(C)n1/N=C/c1ccc2c(c1)OCCO2	?
C/C(N)=C(/C#N)C(=O)COC(=O)c1cc(-c2cccc(Br)c2)nc2ccccc12	?
O=C(CCN1c2ccccc2Sc2ccccc21)Oc1ccccc1	-22%
Cc1ccc(Nc2nc3c(s2)CCC3)c(C)c1	-12%
C=CCC(NCc1ccccc1)c1ccccc1 (stereo not given)	-9%
Cc1ccc(-n2nc(C)c3c2OC(N)=C(C#N)C3c2ccncc2)cc1 (stereo not given)	-7%
O=C(NCc1ccc2c(c1)OCO2)C1CCC(CNc2c(N3CCCC3)c(=O)c2=O)CC1 (stereo not given)	-26%
CCC(=O)NCc1c(Cl)cccc1-n1cccc1	-6%
Oc1ccc(Br)cc1-c1cc(-c2ccccc2)n[nH]1	25µM*
C[C@H]1Cc2c(COc3ccccc3)nc3c(c2CO1)CN(C(=O)NCCc1c[nH]c2ccccc12)CC3	1%
Cc1cc(C)c2c(N)c(C(=O)c3ccc(Cl)cc3Cl)sc2n1	-29%
CCOC(=O)C1CCN(S(=O)(=O)c2ccc3c(c2)CCCN3C(C)=O)CC1	-6%
Cc1noc(N)c1C(=O)Nc1ccccc1F	-15%
CCC(C)C(NC(=O)C(N)CC(C)C)C(=O)NC(CCC(=O)OCc1ccccc1)C(N)=O (stereo not given)	6%
O=C(OCC(=O)N1CCN(C(=O)c2ccco2)CC1)c1cc(-c2ccc(F)cc2)nc2ccccc12	?
CC(C)C(NC(=O)c1ccc(Cl)cc1)C(=O)NC1=NCCS1 (stereo not given)	2%
CN(C)C(=O)c1ccccc1Sc1ccc(Cl)cc1Cl	-21%
Next section:
SMILES	HPGD block
COc1ccccc1C1C=C(c2ccc(Cl)cc2)Nc2nc(N3C(=O)CCC3=O)nn21 (stereo not given)	?
Cc1ccc(-n2nc3c(c2NC(=O)c2ccc4c(c2)OCO4)CSC3)c(C)c1	-19%
Cc1c(N/C=C/C(=O)c2cccs2)c(=O)n(-c2ccccc2)n1C	-15%
COc1cccc(NC(=S)NNC(=O)c2c([N+](=O)[O-])c(C)nn2C)c1	-18%
CCOC(=O)c1c(C)[nH]c(C)c1C(=O)CSc1nc(N)cc(N)n1	-1%
COc1ccccc1OC(=O)c1ccc2nsnc2c1	-14%
Cc1nnc(NCCc2ccccc2)n(N)c1=O	-10%
Cn1c(CN2CCCCC2)nc2cc(NC(=O)c3ccc(Cl)cc3)ccc21	-7%
O=C(Nc1nc(-c2ccccc2)ns1)c1cccs1	-3%
CC(=O)N(Cc1cc2c(C)cc(C)cc2[nH]c1=O)C1CCCCC1	-22%
COc1ccc(NC(=O)CSc2nnc(Cn3cnc([N+](=O)[O-])n3)n2C)cc1	-4%
CCCNC(=O)CC1C(=O)N(Cc2ccccc2)C(C)c2nc3ccccc3n21 (stereo not given)	0%

An excerpt from above in order of SMILES length, low to high.
SMILES	HPGD block
Cc1cc(C(=O)Nc2ccccc2)oc1C	?
Cc1cc(C)c2c(N)c(C(=O)c3ccc(Cl)cc3Cl)sc2n1	-29%
COC(=O)c1cc(S(=O)(=O)N2CCOCC2)c(Cl)cc1N1CCOCC1	-9%

New compounds follow:
SMILES	HPGD block
CCN(CC)C(=O)Cn1cnc2ccccc2c1=O	-8%
CC(C)N1CCc2c(sc(NC(=O)c3ccc(S(=O)(=O)N4CCOCC4)cc3)c2C#N)C1	-14%
O=C(C1CCN(C2CC(=O)N(Cc3ccccc3)C2=O)CC1)N1CCCCCC1 (stereo not given)	?
COc1ccccc1CNC(=O)CN(C)CC(=O)Nc1cccc(F)c1	-23%
Nc1cccc(NC(=O)c2cccs2)c1	-4%
CC/C(=N/NC(=O)c1ccc(Br)cc1)c1ccc(OCCN2CCOCC2)cc1	-4%
Cc1ccc(O)c(NC(=O)c2ccco2)c1	-17%
COC(=O)C(NC(=O)C(C)Oc1ccccc1)C(C)C (stereo not given)	-3%
CN(C)CCCNc1ncnc2nc[nH]c12	-5%
CN1C(=O)CC(C(=O)O)SC1=Nc1ccc(F)cc1 (stereo not given)	-3%
CC(=O)Nc1sc(/C(C#N)=C/c2ccc(Cl)c(Cl)c2)nc1-c1ccc(C)cc1	-27%
COc1ccc(C2=NN(C(=O)c3cccc([N+](=O)[O-])c3)C(c3cccc([N+](=O)[O-])c3)C2)cc1 (stereo not given)	-9%

An excerpt from above in order of their number in HPGD block, falling.
SMILES	HPGD block
CN1C(=O)CC(C(=O)O)SC1=Nc1ccc(F)cc1 (stereo not given)	-3%
CC/C(=N/NC(=O)c1ccc(Br)cc1)c1ccc(OCCN2CCOCC2)cc1	-4%
CCN(CC)C(=O)Cn1cnc2ccccc2c1=O	-8%

Other records follow:
SMILES	HPGD block
CC(=O)NCCOc1cccc2ccccc12	?
Cc1ccc(C(=O)NCC(=O)OCC(=O)Nc2ccccc2[N+](=O)[O-])cc1	-27%
O=C(OC(C(=O)Nc1ccc(Cl)c(C(F)(F)F)c1)c1ccccc1)C1=COCCO1 (stereo not given)	-13%
N#C/C(=C1\CCCN1)c1nc(-c2ccccc2)cs1	-21%
CCCC(=O)N(CCc1ccccc1)Cc1nc2ccccc2c(=O)[nH]1	-5%
C=CCNc1nc(N(c2ccccc2)c2ccccc2)nc(-n2ccnc2)n1	-10%
Cc1cc(NC(=O)CSc2nc3ccccc3c(=O)n2CCCC(=O)NCc2ccccc2)n[nH]1	-5%
CCOC(=O)c1c(CN2CCN(C)CC2)oc2ccc(OC)cc12	1%
CCCOc1ccc(-c2nc(N)n[nH]2)cc1	-16%
CCCc1ccc(-c2cc(C(=O)NN3CCOCC3)c3ccccc3n2)cc1	-29%
Cc1cccc(C(=O)O/N=C2/CC3CCC2(C)C3(C)C)c1 (stereo not given)	-16%
CCC(NC(=O)c1ccc([N+](=O)[O-])cc1[N+](=O)[O-])c1ccccc1 (stereo not given)	-3%

Quoted from the results shown, six compounds:
SMILES	HPGD block
Cc1cc(NC(=O)CSc2nc3ccccc3c(=O)n2CCCC(=O)NCc2ccccc2)n[nH]1	-5%
CCOC(=O)c1c(CN2CCN(C)CC2)oc2ccc(OC)cc12	1%
CCCOc1ccc(-c2nc(N)n[nH]2)cc1	-16%
CCCc1ccc(-c2cc(C(=O)NN3CCOCC3)c3ccccc3n2)cc1	-29%
Cc1cccc(C(=O)O/N=C2/CC3CCC2(C)C3(C)C)c1 (stereo not given)	-16%
CCC(NC(=O)c1ccc([N+](=O)[O-])cc1[N+](=O)[O-])c1ccccc1 (stereo not given)	-3%

(next part)
SMILES	HPGD block
O=c1nc(/C=C/c2cc([N+](=O)[O-])ccc2Cl)cc(C(F)(F)F)[nH]1	3.2µM*
N#Cc1cccc(NC(=O)N2CCC3(CC2)CCN(C(=O)c2cccc(F)c2)CC3)c1	3%
O=C(COC(=O)c1cccnc1Nc1cccc(C(F)(F)F)c1)NC1CCS(=O)(=O)C1 (stereo not given)	-9%
Clc1ccc(/C=N/Nc2nnc(Cl)c3ccccc23)cc1	-15%
COc1ccc(C2C=C(C)Nc3nc(SC)nn32)cc1 (stereo not given)	?
O=c1c2ccccc2oc2nc(-c3ccco3)n(Cc3ccccc3)c(=O)c12	?
CCOC(=O)COc1nc(OC)nc(N2CCOCC2)n1	-4%
Cc1ccc(S(=O)(=O)c2cc3ccccc3oc2=Nc2ccc3c(c2)OCCO3)cc1	-19%
CCOC(=O)Cc1csc(NC(=O)c2ccc(S(=O)(=O)N3CCCCC3)cc2)n1	-9%
Cc1ccc(Cn2nc(C)c(NC(=O)c3cc(-c4ccco4)on3)c2C)cc1	-15%
O=C(c1cccc(S(=O)(=O)N2CCOCC2)c1)N1CCCC1	-10%
COc1cc(/C=C(\NC(=O)c2ccccc2)C(=O)NCC(=O)O)c([N+](=O)[O-])cc1OC	-20%
CN1CCC(=NNC(=O)CSCc2ccccc2)CC1	-4%
O=C(NCC1COc2ccccc2O1)C1CCC(CNc2c(N3CCCCC3)c(=O)c2=O)CC1 (stereo not given)	14µM*
O=C(CC1CCCC1)Nc1nnc(C2CC2)s1	-7%
O=C(CSc1nnc(-c2ccncc2)n1CC1CCCO1)NCc1ccccc1 (stereo not given)	2%
CCOC(=O)C(CC)Sc1nnc2n1C(C)(C)Cc1ccccc1-2 (stereo not given)	-1%
COC(=O)C/C=C/[C@@H](C)[C@H](NC(=O)OCC(Cl)(Cl)Cl)c1ccccc1	-2%
COc1ccc2nc(NC(=O)CNS(=O)(=O)c3cccs3)sc2c1	-22%
CCOCCCNC(=O)C(c1ccc(C)cc1)N(Cc1ccc2c(c1)OCO2)C(=O)c1cnccn1 (stereo not given)	5%
Cc1ccc2nc(NC(=O)Cn3cc4c(n3)CCCCC4)sc2c1	-3%
COc1ccc(OC)c2c1C(=O)c1ccccc1C2=O	-4%
Cc1ccc([N+](=O)[O-])cc1NC(=O)C(Sc1ccccc1)c1ccccc1 (stereo not given)	-5%
CN(C)S(=O)(=O)c1ccc(C(=O)Nc2cc(S(=O)(=O)Nc3ccccc3Cl)ccc2N2CCCCC2)cc1	?

A few values from the list:
`O=C(CC1CCCC1)Nc1nnc(C2CC2)s1` | HPGD block: -7%
`CCOC(=O)C(CC)Sc1nnc2n1C(C)(C)Cc1ccccc1-2` (stereo not given) | HPGD block: -1%
`O=C(CSc1nnc(-c2ccncc2)n1CC1CCCO1)NCc1ccccc1` (stereo not given) | HPGD block: 2%

More results:
SMILES	HPGD block
O=S(=O)(Nc1ccc2ccccc2c1)c1ccccc1	-28%
O=C(CSc1ccc2nnc(CCNS(=O)(=O)c3ccccc3)n2n1)Nc1nc2ccccc2s1	-4%
Cc1ccccc1N1CCN(C2=NC(=O)/C(=C/c3cn[nH]c3-c3ccccc3)S2)CC1	-3%
CCn1c(=O)n(CCOC)c(=O)c2c3c(sc21)CCCC3	-13%

Assay outcomes from PubChem.
